UUG fidelity – modulators of yeast start codon fidelity, primary screen, whole organism, S. cerevisiae, single point, plate reader; S. cerevisiae UUG-firefly luciferase reporter, luminescence/redox ratio; activity score, % at 18.7 µM; 0.13% of 350,000 active; AID 602363, 2012;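 active = replicate mean at a twofold rise or more, about +100% in these data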;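 also: firefly luciferase made from a UUG start codon reports start codon fidelity; reporter light over untreated wells divided by growth signal over untreated wells; some hits fall short of that in this replicate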
CSC inhib – cancer stem cell viability inhibitors, primary screen, luminescence; 1.1% of 300,000 active; cancer stem cell-like cells viability; inhibition, % at 7.5 µM;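 active = mean at 75% or more and at least half the replicates too; inconclusive = mean and replicates disagree; tested in HMLE shEcad cells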;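 also: 0% = median of negative and 100% = median of positive control wells; the first replicate is given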
Rce1 inhib – yeast Rce1p protease inhibitors, primary screen, biochemical, fluorescence, cell-free homogeneous; CAAX prenyl protease 2 (Saccharomyces cerevisiae (strain ATCC 204508 / S288c)), Q03530; yeast membranes, quenched prenylated peptide cleavage fluorescence; calls only; 0.27% of 290,000 active; AID 2563, 2010;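 active = fall in fluorescence gain of 50% or more versus controls, with final raw signal at or below 3038400; inconclusive = same 50% fall but final raw signal above 3038400; inactive = fall in fluorescence gain under 50%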;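 also: plate controls were neutral control wells for no effect and wells lacking membranes for full effect; tested at 10 µM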
eIF4H FP inh – human eIF4H binding inhibitors, primary screen, translation initiation inhibitor project, biochemical, uHTS, fluorescence polarization. Eukaryotic translation initiation factor 4H (Homo sapiens), Q15056. eIF4H fluorescence polarization binding assay. inhibition, % at 35 µM. 0.94% of 290,000 active. AID 2012, 2009;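 active = 50% or more with normal probe brightness, or confirmed in later tests; inconclusive = above 50% with abnormal brightness, or retests that disagree; inactive = below 50% or failed in later tests; about a fifth of its hits are not listed in these tables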;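 also: calls also rest on retests at 20 µM and on dose response follow-up; 0% = protein and probe with vehicle and 100% = probe without protein; strong numbers were not always called active; many hits fall short of the cut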
MT1-MMP act inh – blockers of MT1-MMP proenzyme processing, primary screen, HT1080 RFP-PRO-GFP cells, GFP/RFP fluorescence; Matrix metalloproteinase-14 (Homo sapiens), P50281; GFP/RFP ratio fluorescence, overnight; percent of plate control window, DMSO zero; GFP/RFP ratio change, % at 20 µM; 0.061% of 360,000 active; AID 651647, 2012;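 active = GFP/RFP ratio change of at least 30% with cell ATP level not reduced by more than half and red fluorescence within 50% of control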; also: strong numbers were not always called active
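Assay system: HT1080 RFP-PRO-GFP cells. Benchmarks: DMSO vehicle wells and RFP-L50D-GFP reporter cell wells. Times: overnight cell settling, then overnight compound exposure, 37 °C, 5% CO2. Compound: 20 µM single dose, 1% DMSO. Read-out basis: GFP/RFP fluorescence ratio.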
PABP FP inh – PABP poly(A) RNA binding inhibitors, primary screen, biochemical, fluorescence polarization, uHTS; 1% of 290,000 active; AID 2014, 2009; Polyadenylate-binding protein 1 (Homo sapiens), P11940; inhibition, % at 35 µM;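 active = 50% or more with normal probe brightness, or confirmed in later tests; inconclusive = above 50% with abnormal brightness, or retests that disagree; inactive = below 50% or failed in later tests; about a fifth of its hits are not listed in these tables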;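 also: calls also rest on retests at 20 µM and on dose response follow-up; controls were probe without protein and protein plus probe with vehicle; some compounds called inactive have numbers as strong as hits; many hits fall short of the cut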
Target sequence (P11940 whole entry, looked up): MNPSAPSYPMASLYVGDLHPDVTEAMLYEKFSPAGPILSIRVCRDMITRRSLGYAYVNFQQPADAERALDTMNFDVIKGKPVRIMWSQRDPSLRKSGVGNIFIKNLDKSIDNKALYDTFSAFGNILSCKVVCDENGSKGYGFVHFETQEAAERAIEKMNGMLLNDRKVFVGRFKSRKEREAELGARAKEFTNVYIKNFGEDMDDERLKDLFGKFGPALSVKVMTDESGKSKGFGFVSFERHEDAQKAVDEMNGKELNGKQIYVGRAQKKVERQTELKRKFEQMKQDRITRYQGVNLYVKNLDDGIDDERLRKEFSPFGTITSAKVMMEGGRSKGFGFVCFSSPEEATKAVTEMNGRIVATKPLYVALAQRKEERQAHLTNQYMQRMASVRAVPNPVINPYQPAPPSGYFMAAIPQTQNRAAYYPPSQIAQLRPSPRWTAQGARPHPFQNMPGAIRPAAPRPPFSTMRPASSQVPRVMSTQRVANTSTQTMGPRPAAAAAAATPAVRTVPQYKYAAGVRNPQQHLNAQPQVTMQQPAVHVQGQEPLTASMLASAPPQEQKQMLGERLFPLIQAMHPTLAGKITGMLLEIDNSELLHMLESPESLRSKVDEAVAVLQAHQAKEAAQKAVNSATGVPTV
HIV Env fusion – inhibitors of HIV-1 Env-driven cell-cell fusion, primary screen, HeLa-JRFL effector, CEM21 target cells, luciferase; inhibition, % at 12.3 µM; 1.1% of 360,000 active; AID 651610, 2012;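 active = mean replicate inhibition score of at least 50 and every replicate individually at or above 50; inconclusive = only one of the two criteria met; inactive = mean below 50 and not all replicates reaching 50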;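 also: 0% = plate neutral controls and 100% = maraviroc near 300 nM; one replicate is shown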
MT1-MMP act inh RFP – further read-out of MT1-MMP act inh, marked with its call; RFP signal change, %; measured here: RFP expression control read;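 0 = vehicle wells; hits needed this value within 50% of zero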
Active calls of the source: *; i = inactive; ? = inconclusive; · = no result given; & = joins results of further samples; [ ] = dose if it differs, or a comment.

The line under a structure holds: UUG fidelity | CSC inhib | Rce1 inhib | eIF4H FP inh | MT1-MMP act inh | MT1-MMP act inh RFP | PABP FP inh | HIV Env fusion
1) CC(=O)Nc1ccc(S(=O)(=O)NCc2ccc(C(=O)NCCN(C)Cc3ccccc3)cc2)cc1
→ -4 | · | · | · | -1 | -3 | · | 4
2) c1ccc(CN2CCN(Cc3c[nH]c4ccccc34)CC2)cc1
→ -11 | -19 | i | -1 | -11 | 0 | 7 | -8
3) Cc1ccc(S(=O)(=O)CCC(=O)N2CCN(c3ccccc3O)CC2)cc1
→ -1 | 5 | · | · | 5 | 1 | · | ·
4) COc1ccc(/C=N/N=C/c2ccc(OC)c(OC)c2)cc1OC
→ -2 | 9 | i | -8 | -3 | 0 | 0 | -6
5) CCN(CC)C(=O)C1=C(C)NC(=O)NC1c1ccccc1F (centres undefined)
→ · | -1 | i | 17 | · | · | 14 | ·
6) CCCC(C(=O)NC1CCCCC1)N(CC1CCCO1)C(=O)CNS(=O)(=O)c1ccc(F)cc1 (centres undefined)
→ -12 | 16 | i | -2 | -6 | -2 | 2 | ·
7) CC(C)CCn1c(NCCc2ccccc2)nc2c1c(=O)n(C)c(=O)n2C
→ -12 | 6 | i | 4 | -6 | -17 | -4 | -1
8) Cc1cccc(C)c1NC(=O)COC(=O)Cc1ccsc1
→ · | -16 | i | 3 | 2 | -1 | -3 | 10
9) Cc1cccc2cc(CN(Cc3nnnn3Cc3ccco3)C3CCCC3)c3nnnn3c12
→ -22 | 5 | i | -4 | -7 | -6 | 1 | -114
10) Cc1c(C(=O)Nc2nnc(C3CC3)s2)oc2ccccc12
→ -13 | -7 | · | · | -1 | 2 | · | ·
11) CN(Cc1ccccc1)S(=O)(=O)c1ccc2c(c1)n(C)c(=O)n2C
→ -12 | -13 | i | 6 | 4 | 0 | 2 | 6
12) O=C(Nc1ccc2c(c1)OCCO2)C(CCc1ccccc1)N(Cc1ccccc1)Cc1ccccc1 (centres undefined)
→ -15 | · | · | · | -8 | -13 | · | 46
13) Cc1cc(C)c(C#N)c(OCC(=O)c2ccccc2)n1
→ -7 | -11 | i | 6 | -5 | 4 | -1 | -58
14) CC(Oc1ccc(F)cc1)C(=O)Nc1ccccc1N1CCCCC1 (centres undefined)
→ -8 | 21 | i | -5 | -3 | -6 | 1 | 48
15) CCOC(=O)C1CCCN(C(=O)COc2ccc(C(=O)c3ccccc3)cc2)C1 (centres undefined)
→ 3 | · | · | · | 12 | -2 | · | 28
16) Cc1cc(C)c(S(=O)(=O)/N=C2\C=C(NS(=O)(=O)c3ccccc3)C(=O)c3ccccc32)c(C)c1
→ -3 | -7 | i | 15 | 41* | 32* | 20 | 11
17) FC(F)C(F)(F)Oc1cccc(Nc2nccn3c(-c4ccc5ccccc5c4)cnc23)c1
→ -15 | · | · | · | -9 | -13 | · | 19
18) COCCNC(=S)N(CCc1c(C)[nH]c2ccc(F)cc12)Cc1ccc(C)cc1
→ -14 | 10 | i | 6 | -6 | -5 | 5 | 15
19) Cc1ccccc1Cn1c(-c2ccc(=O)[nH]c2)nc2ccccc21
→ -23 | -5 | i | -2 | 3 | 6 | 4 | 1
20) CC(NS(=O)(=O)c1ccc(N)cc1)C1CC2CCC1C2 (centres undefined)
→ · | 4 | i | 6 | 2 | 2 | 4 | -9
21) CCN(c1ccccc1)S(=O)(=O)c1ccc(N)cc1
→ -14 | 0 | i | 0 | 3 | 5 | 5 | -22
22) C[C@@H]1CN([C@H](C)CO)C(=O)c2cc(NS(=O)(=O)c3cn(C)cn3)ccc2O[C@H]1CN(C)C(=O)Nc1ccccc1
→ -6&-18 | · | · | · | 1 | 2 | · | 15[16.7 µM]
23) O=C(Nc1ccnc(-c2ccncc2)n1)c1ccc(Cl)cc1
→ 0 | 2 | i | 6 | 5 | -5 | 2 | ?
24) O=C(C[C@@H]1C/C=C\C[C@H](Cc2ccc(F)cc2)C(=O)OC[C@H]2CCCN2C1=O)N[C@H](CO)Cc1ccccc1
→ 24 | · | · | · | -2 | 3 | · | -2
25) Cc1cnc(C(=O)OCC(=O)NCc2ccccc2)cn1
→ -36 | -2 | i | 9 | 2 | 11 | -3 | -56
26) Brc1ccc(-c2csc(Nc3nc(-c4ccc(Br)cc4)cs3)n2)cc1
→ -14 | 43 | i | 2 | 2 | 0 | 2 | -28
27) COc1ccc(NC(=O)c2ccc(-n3nc(C)cc3C)cc2)cc1OC
→ -20 | 5 | i | 1 | 7 | 5 | -6 | ·
28) CCN(CC)C(=O)C(Oc1ccc(C)nc1[N+](=O)[O-])c1ccccc1 (centres undefined)
→ -5 | -7 | i | 4 | 1 | 4 | 15 | 5
29) CCOc1ccc2sc(NS(=O)(=O)c3ccc(OC)c(OC)c3)nc2c1
→ -25 | 2 | i | -2 | 0 | 4 | -8 | -7
30) COc1ccc(-c2cc(C(F)F)n3ncc(C(=O)NCCCN4CCCC4=O)c3n2)cc1
→ -9 | · | i | -11 | -1 | 0 | -1 | 17
31) CN/N=C/c1ccc(C#N)cc1
→ · | -9 | i | -6 | 0 | 0 | 3 | -9
32) O=C(Oc1ccccc1Cl)c1ccccc1
→ -5 | · | · | · | 0 | 2 | · | -140
33) Cc1ccc(C(=O)N[C@H](C(=O)Nc2sccc2C(N)=O)C(C)C)cc1
→ 8 | 3 | i | -12 | 4 | -1 | 5 | -9
34) CC(C)CNC(=O)CN1c2cccc3cccc(c23)S1(=O)=O
→ -16 | 0 | i | 11 | 0 | -2 | 2 | 1
35) CC1OC(C)(C)OC1C1CNc2nc(NC(=O)C(C)(C)C)[nH]c(=O)c2N1C(=O)c1cccnc1 (centres undefined)
→ 21 | 0 | i | 4 | 6 | 6 | -2 | -8
36) Cc1onc(-c2ccccc2)c1C(=O)N/N=C/c1cc2c(cc1Cl)OCO2
→ · | 9 | i | 2 | -6 | -18 | -2 | 43
37) O=c1[nH]c(CSc2cccc[n+]2[O-])nc2ccccc12
→ · | -15 | i | -5 | 5 | 8 | -15 | -4
38) O=c1c(-c2ccc3c(c2)OCCO3)coc2cc(OC3OC(CO)C(O)C(O)C3O)ccc12 (centres undefined)
→ 1 | 1 | i | -1 | 5 | 2 | -6 | -122
39) O=c1cc(Cl)[nH]n(-c2ccccc2)c1=O
→ -23 | -18 | i | -6 | 3 | 3 | 7 | 5
40) O=C(COC(=O)c1cncc(Br)c1)NCc1ccc(F)cc1
→ -8 | · | i | 10 | 0 | 2 | ? | 2

Quoted at random: 6 records from the list, in no set order.
The line under a structure holds: UUG fidelity | CSC inhib | Rce1 inhib | eIF4H FP inh | MT1-MMP act inh | MT1-MMP act inh RFP | PABP FP inh | HIV Env fusion
21) CCN(c1ccccc1)S(=O)(=O)c1ccc(N)cc1
→ -14 | 0 | i | 0 | 3 | 5 | 5 | -22
13) Cc1cc(C)c(C#N)c(OCC(=O)c2ccccc2)n1
→ -7 | -11 | i | 6 | -5 | 4 | -1 | -58
8) Cc1cccc(C)c1NC(=O)COC(=O)Cc1ccsc1
→ · | -16 | i | 3 | 2 | -1 | -3 | 10
11) CN(Cc1ccccc1)S(=O)(=O)c1ccc2c(c1)n(C)c(=O)n2C
→ -12 | -13 | i | 6 | 4 | 0 | 2 | 6
31) CN/N=C/c1ccc(C#N)cc1
→ · | -9 | i | -6 | 0 | 0 | 3 | -9
20) CC(NS(=O)(=O)c1ccc(N)cc1)C1CC2CCC1C2 (centres undefined)
→ · | 4 | i | 6 | 2 | 2 | 4 | -9

Structural class, those above containing two or more sulfur atoms.
The line under a structure holds: UUG fidelity | CSC inhib | Rce1 inhib | eIF4H FP inh | MT1-MMP act inh | MT1-MMP act inh RFP | PABP FP inh | HIV Env fusion
16) Cc1cc(C)c(S(=O)(=O)/N=C2\C=C(NS(=O)(=O)c3ccccc3)C(=O)c3ccccc32)c(C)c1
→ -3 | -7 | i | 15 | 41* | 32* | 20 | 11
26) Brc1ccc(-c2csc(Nc3nc(-c4ccc(Br)cc4)cs3)n2)cc1
→ -14 | 43 | i | 2 | 2 | 0 | 2 | -28
29) CCOc1ccc2sc(NS(=O)(=O)c3ccc(OC)c(OC)c3)nc2c1
→ -25 | 2 | i | -2 | 0 | 4 | -8 | -7

Carrying on:
The line under a structure holds: UUG fidelity | CSC inhib | Rce1 inhib | eIF4H FP inh | MT1-MMP act inh | MT1-MMP act inh RFP | PABP FP inh | HIV Env fusion
41) COc1ccc(C(=O)NC(=S)NNC(=O)CCc2ccccc2)cc1
→ -31 | 11 | i | 26 | 7 | 2 | 0 | ·
42) CC[C@@H]1C(c2ccc(F)cc2)=NN(c2ccc(Br)cc2)[C@H]1C(=O)N1CCOC1=O
→ -6 | · | · | · | 1 | 3 | · | -15
43) O=C(O)CNC(=O)CCn1nnc2ccccc2c1=O
→ -3 | -8 | i | 0 | 1 | 2 | 6 | 9
44) O=C(NNC(=O)c1ccccc1F)c1ccc(Cl)c(S(=O)(=O)N2CCOCC2)c1
→ -14 | -1 | · | · | 10 | -7 | · | 19
45) CC(=O)Nc1cccc(-c2ccnc3c2CC(C)(C(=O)NCCc2ccccc2)O3)c1 (centres undefined)
→ -25 | · | · | · | 14 | -1 | · | -286
46) CCCc1noc2c1/C(=N\O)CC(c1ccccc1)C2 (centres undefined)
→ 5 | -3 | i | 4 | 5 | -3 | 7 | ·
47) C=CCNCCCCOc1cccc(Br)c1
→ · | · | i | 15 | 5 | 3 | 9 | -31
48) CCc1nnc(NS(=O)(=O)c2ccc(NC(=S)NC(=O)/C=C/c3cccs3)cc2)s1
→ · | · | i | 32 | -4 | -8 | 14 | -11
49) OC(c1ccc(Cl)cc1)c1nnc(-c2ccccc2)o1 (centres undefined)
→ 9 | 1 | · | -5 | -2 | -3 | -5 | -14
50) O=C(NCc1ccncc1)Nc1cc(Cl)ccc1Cl
→ -8 | -8 | i | -2 | 0 | 0 | -6 | 0
51) COCC#Cc1ccc2c(c1)O[C@@H](CN(C)S(=O)(=O)c1cccc(F)c1)[C@@H](C)CN([C@H](C)CO)S2(=O)=O
→ 6&16 | · | · | · | -5 | -4 | · | 4
52) CCOC(=O)C1(Cc2cccc(OC)c2)CCN(Cc2cccc(OCC)c2O)CC1
→ -5 | -16 | i | -6 | -7 | -11 | -16 | -12
53) COc1cc(NC(=O)C2CCCN(S(=O)(=O)c3cccc4nsnc34)C2)cc(OC)c1 (centres undefined)
→ 5 | -1 | i | -1 | -28 | -10 | -8 | 13
54) NC1=NC(c2ccccc2)CC(=O)N1 (centres undefined)
→ -5 | · | · | · | -3 | 1 | · | -6
55) O=C1CN(C(=S)NC(=O)c2ccccc2[N+](=O)[O-])CCN1
→ -9 | -13 | i | -2 | 0 | 1 | -9 | 11
56) NC(=S)NNc1c(F)c(F)c(F)c(F)c1F
→ · | 9 | i | 5 | -3 | -3 | -7 | -4
57) Cc1[nH]cnc1C(=O)N/N=C/c1ccc([N+](=O)[O-])s1
→ -11 | 9 | i | 9 | 11 | -20 | 3 | 5

High-throughput results from PubChem.
